Screening data deposited in PubChem BioAssay by National Center for Advancing Translational Sciences (NCATS).
Lassa entry inh: Lassa virus entry inhibition | Lassa virus pseudotype entry inhibition, cell reporter; control for the full effect not named in the record | Potency, µM (titrated, usually from 37.9 µM), for the others: at the top dose activity change, negative = inhibition, most hits filed as inhibitors | 300,000 tested, 1.2% active; active means well fitted inhibition curve with a large enough effect; inconclusive means small, poorly fitted or top-dose-only effect, or effect the other way; inactive means flat fitted curve, though single readings scatter; tested in HEK293 cells; also: % is scaled to controls: 0 for no effect and ±100 for the full control effect; nearly all actives have a fitted effect of over 50% in size; luciferase read-out
Cruzain Triton: blocks cruzain activity in presence of Triton detergent | P25779 | purified cruzain, Z-FR-AMC fluorescence, 0.01% Triton | Potency, µM, for inactives: max response, negative = inhibition, hits mostly inhibitors | 200,000 tested, 0.43% active | AID 1478; active = well fitted curve in the direction sought with a large enough effect; inconclusive = small, poorly fitted or top-dose-only effect, or another doubt; inactive = no such curve, though single readings can be large; an effect the other way counts as inactive or inconclusive;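 also: plate controls were neutral wells for no effect and buffer without enzyme for full effect; nearly all actives have a fitted effect of over 40% in size; top concentration of the series not given in the record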
Target sequence (P25779 123-467 limits assumed): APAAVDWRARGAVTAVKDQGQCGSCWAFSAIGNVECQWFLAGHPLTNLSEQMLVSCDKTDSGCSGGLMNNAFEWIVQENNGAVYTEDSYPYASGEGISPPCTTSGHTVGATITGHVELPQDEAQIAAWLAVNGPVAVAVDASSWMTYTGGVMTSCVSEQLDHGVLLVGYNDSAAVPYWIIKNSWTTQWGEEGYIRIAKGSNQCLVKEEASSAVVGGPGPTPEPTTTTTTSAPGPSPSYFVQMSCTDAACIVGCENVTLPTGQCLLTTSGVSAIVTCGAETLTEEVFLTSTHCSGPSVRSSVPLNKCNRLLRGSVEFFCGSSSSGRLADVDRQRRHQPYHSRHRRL
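Enzyme 1.5 nM, Z-FR-AMC 2 uM, NaOAc 100 mM pH 5.5, DTT 5 mM, Triton X-100 0.01%; 15 min RT compound preincubation; kinetic ex360/em450, 60 s delta.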
2A StopGo: lowers the luciferase signal of an FMDV 2A StopGo reporter; human cells with a luciferase reporter of 2A StopGo recoding; control for the full effect not named in the record; Potency, µM (top dose mostly 57.9 µM), for inactives: at the top dose signal change, negative = less light; 410,000 tested, 1.2% active; AID 1159524; active = well fitted falling curve with a large enough effect; inconclusive = small, poorly fitted or top-dose-only effect; inactive = no such curve, though single readings can be large or run the other way; tested in HEK293T cells; also: % is scaled to controls: 0 for no effect and ±100 for the full control effect; nearly all actives have a fitted effect of over 45% in size; luciferase light after 4 h
NS1 inh: inhibitors of influenza NS1 protein function. S. cerevisiae slowed by influenza A NS1, growth recovery by OD600. Potency, µM (doses to about 46.1 µM), inactives show top-dose activity, positive = more growth. 270,000 tested, 0.4% active. AID 2326; also: actives are rising curves; nearly all actives have a fitted effect of over 50% in size
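OD600 was taken as the measure of yeast growth restored by compound in an NS1-expressing S. cerevisiae strain. Cells had been washed out of glucose medium and diluted 1:100 into galactose -URA medium, pH 6.0.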
RE007 growth inh: less growth of the S. pombe RE007 Vpr strain; S. pombe RE007 Vpr strain, BacTiter-Glo ATP luminescence, 24 h; control for the full effect not named in the record; Potency, µM (series often up to 92.2 µM), without a hit: at the top dose activity change, negative = less growth; 360,000 tested, 0.21% active; AID 651644; active = well fitted falling curve with a large enough effect; inconclusive = small, poorly fitted or top-dose-only effect; inactive = no such curve, though single readings can be large or run the other way;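 also: % is scaled to controls: 0 for no effect and ±100 for the full control effect; nearly all actives have a fitted effect of over 50% in size; the assay follows cell death caused by Vpr and the record does not say whether a fall means rescue or toxicity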
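Fission yeast RE007 carrying one integrated HIV-1 vpr copy, seeded at OD 0.01 in PMG+AL medium with 23 nL pinned compound. Grown 24 h at 30 degrees; viability read by BacTiter-Glo luminescence after 5 min.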
SARS PLpro yeast: blocks SARS-CoV papain-like protease in a yeast assay; S. cerevisiae expressing SARS-CoV PLpro, growth rescue; control for the full effect not named in the record; Potency, µM (doses to about 32.9 µM), inactives show at the top dose activity, positive = growth rescue; 330,000 tested, 0.19% active; AID 485353; also: 0% is about no effect; nearly all actives have a fitted effect of over 55% in size; growth read by luminescence after 48 h
Marburg entry inh: blocks Marburg virus binding to or entry into cells; Marburg virus pseudotyped entry inhibition, cell reporter; control for the full effect not named in the record; about a third of the inactives were read at about 46 µM; Potency, µM (series often up to 37.8 µM), for inactives: at the highest dose activity change, negative = inhibition, most hits filed as inhibitors; 300,000 tested, 1.8% active; AID 540276; active = well fitted inhibition curve with a large enough effect; inconclusive = small, poorly fitted or top-dose-only effect, or effect the other way; inactive = flat fitted curve, though single readings scatter; tested in HEK293 cells; about a fifth of its hits are not listed in these tables; also: % is scaled to controls: 0 for no effect and ±100 for the full control effect; luciferase read-out
Cruzain noTriton: blocks cruzain activity in detergent-free assay | P25779 | purified cruzain, Z-FR-AMC fluorescence, no detergent | Potency, µM, for the others: max response, negative = inhibition, most hits filed as inhibitors | 200,000 tested, 2.3% active | AID 1476; active = well fitted curve in the direction sought with a large enough effect; inconclusive = small, poorly fitted or top-dose-only effect, or another doubt; inactive = no such curve, though single readings can be large; an effect the other way counts as inactive or inconclusive;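 also: plate controls were enzyme without inhibitor for no effect and buffer without enzyme for full effect; nearly all actives have a fitted effect of over 40% in size; top concentration of the series not given in the record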
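Purified cruzain at 1.5 nM, pre-incubated 15 min with compound at room temperature in 100 mM sodium acetate pH 5.5, 5 mM DTT, 0.00005% Triton X-100. Reaction started with 2 uM Z-FR-AMC; AMC fluorescence increase over 60 s gives rate.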
The depositor's hits bear a star; ! = repeats disagree; [ ] = remark or other dose. Unless noted, calls follow the shape of the dose curve; as a rule, active means well fitted rising curve with a large enough effect; inconclusive means small, poorly fitted or top-dose-only effect; inactive means no such curve, though single readings can be large or run the other way. Potency is read from the fitted curve at half-maximal effect.

Screening CN(C)N1C(N)=C(C#N)C(c2ccc3c(c2)OCO3)C2=C1CC(C)(C)CC2=O (stereo not drawn) returned Lassa entry inh -17.1%, 2A StopGo -4.2%, NS1 inh 2.9%, RE007 growth inh 6.7%, SARS PLpro yeast 2.9% and Marburg entry inh 13.5%.
COc1ccc(C(C)NC(=O)c2cccc([N+](=O)[O-])c2)cc1OC (stereo not drawn) was read as Lassa entry inh -1.5%, Cruzain Triton -0.2%, 2A StopGo -20.1%, NS1 inh -18.5%, RE007 growth inh 8.1%, SARS PLpro yeast 12.9%, Marburg entry inh 1.2% and Cruzain noTriton -9.8%.
`O=C(Nc1cc(Cl)ccc1N1CCOCC1)C1CC1` gave Lassa entry inh 1.1%, 2A StopGo -7.9%, RE007 growth inh -6.2%, SARS PLpro yeast -0.5% and Marburg entry inh 5.8%.
For CC(C)OCCCNC(=O)c1c(N)n(/N=C/c2cccs2)c2nc3ccccc3nc12 the results were Lassa entry inh -3.7%, Cruzain Triton -0.9%, 2A StopGo -13.3%, NS1 inh 3.3%, RE007 growth inh -7.7%, SARS PLpro yeast -1.2%, Marburg entry inh inconclusive and Cruzain noTriton inconclusive.
COCc1cc(=O)n2[nH]c(C(F)(F)F)nc2n1 was read as Lassa entry inh 25.8%, Cruzain Triton 3.0%, 2A StopGo -17.7%, NS1 inh 5.7%, RE007 growth inh -14.5%, SARS PLpro yeast 9.7%, Marburg entry inh -0.4% and Cruzain noTriton 1.3%.
For COc1ccc(CN2C(=S)NC(C)(C)CC2(C)O)cc1 (stereo not drawn) the results were Lassa entry inh -13.6%, Cruzain Triton 0.0%, 2A StopGo -20.4%, NS1 inh 10.3%, RE007 growth inh 9.8%, SARS PLpro yeast 5.2%, Marburg entry inh inconclusive and Cruzain noTriton 2.8%.
For CCOC(=O)CSc1ncnc2c1nnn2-c1ccc(F)cc1 the results were Lassa entry inh -18.3%, Cruzain Triton 6.8%, 2A StopGo -17.1%, NS1 inh 5.3%, RE007 growth inh 5.8%, SARS PLpro yeast -4.0%, Marburg entry inh 4.0% and Cruzain noTriton -8.1%.
Screening CCN1C(=O)/C(=C/C2=Cc3ccccc3OC2C)SC1=S (stereo not drawn) returned Lassa entry inh -18.5%, 2A StopGo 2.5%, NS1 inh -4.4%, RE007 growth inh -6.8%, SARS PLpro yeast 0.7% and Marburg entry inh -7.1%[46.1 µM].
Screening Cc1ccc(C(c2sc3nc(C)nn3c2O)N2CCN(C(=O)c3ccco3)CC2)cc1 (stereo not drawn) returned Lassa entry inh -4.3%, Cruzain Triton -4.6%, NS1 inh -6.7%, RE007 growth inh -0.1%, SARS PLpro yeast inconclusive, Marburg entry inh 2.4% and Cruzain noTriton inconclusive.
`O=C(NCc1ccccc1)C1CCN(S(=O)(=O)c2cccc3cccnc23)CC1` gave Cruzain Triton 3.6%, 2A StopGo -23.7%, NS1 inh 4.7%, RE007 growth inh 4.2%, SARS PLpro yeast -1.0%, Marburg entry inh -4.8% and Cruzain noTriton -1.0%.
For Cc1cc(C)c(S(=O)(=O)N2CCCC(C(=O)NC3CC3)C2)c(C)c1 (stereo not drawn) the results were Lassa entry inh -3.4%, 2A StopGo 0.0%, NS1 inh 1.6%, RE007 growth inh 1.5%, SARS PLpro yeast 1.7% and Marburg entry inh 24.0%.
Screening CCCCn1nnnc1SCC(=O)c1ccc(C)c(C)c1 returned Lassa entry inh -15.5%, Cruzain Triton -3.3%, 2A StopGo 16.6%, NS1 inh -56.6%, RE007 growth inh inconclusive, SARS PLpro yeast -17.5%, Marburg entry inh 2.5% and Cruzain noTriton -5.3%.
For CC(NC(=O)COc1cccnc1[N+](=O)[O-])c1ccc(Cl)cc1 (stereo not drawn) the results were Lassa entry inh -9.3%[46.1 µM], 2A StopGo 0.0%, NS1 inh -3.4%, RE007 growth inh -3.0%, SARS PLpro yeast 1.7% and Marburg entry inh 10.3%[46.1 µM].
For Cc1ccc2nc(-c3ccccc3)c(-c3ccccc3)nc2c1 the results were 2A StopGo -14.9%, NS1 inh 6.1%, RE007 growth inh -3.4% and SARS PLpro yeast -1.9%.
Screening O=C(c1ccc([N+](=O)[O-])cc1)N(Cc1ccc(Br)cc1)N1C(=O)CCCC1=O returned Lassa entry inh 5.8%, Cruzain Triton 2.6%, 2A StopGo 10.9%, NS1 inh -13.1%, RE007 growth inh 4.6%, SARS PLpro yeast 4.7%, Marburg entry inh -13.9% and Cruzain noTriton 0.9%.
CCOC(=O)c1cccnc1SCc1cc(=O)n2ccccc2n1 was read as Lassa entry inh 5.7%, Cruzain Triton -4.3%, 2A StopGo 22.4%, NS1 inh -102.9%, RE007 growth inh 2.1%, SARS PLpro yeast -5.8%, Marburg entry inh 13.9% and Cruzain noTriton 4.8%.
COc1cccc(NC(=O)C(=O)NCC2CCCN2S(=O)(=O)c2ccccc2)c1 (stereo not drawn) was read as Lassa entry inh inconclusive, 2A StopGo 28.4%, RE007 growth inh -1.1%, SARS PLpro yeast -7.2% and Marburg entry inh inconclusive.
For CN(C)c1ccc(NC(=O)CCN2C(=O)c3cccc([N+](=O)[O-])c3C2=O)cc1 the results were Lassa entry inh 1.2%[46.1 µM], 2A StopGo 2.4%, NS1 inh -4.1%, RE007 growth inh -12.0%, SARS PLpro yeast -5.7% and Marburg entry inh 23.8%[46.1 µM].
Screening CCOC(=O)c1cc2c(=O)n3ccccc3nc2n(CC2CCCO2)c1=NC(=O)c1ccccc1OCC (stereo not drawn) returned Lassa entry inh inconclusive, Cruzain Triton -2.5%, 2A StopGo 34.1%[activator], Marburg entry inh 2.3%[46.1 µM] and Cruzain noTriton 0.1%.
For COc1ccc(/C=C/C(=O)c2cc(Br)ccc2OC(=O)c2ccco2)cc1OC the results were Lassa entry inh inconclusive, Cruzain Triton -1.9%, 2A StopGo 11.5%, NS1 inh inconclusive, RE007 growth inh 2.4%, SARS PLpro yeast -6.5%, Marburg entry inh 5.8µM*! and Cruzain noTriton inconclusive.
Screening CC(C)(C)c1ccc(C(=O)N2CCCC2)s1 returned 2A StopGo 57.2%[activator], NS1 inh -3.6%, RE007 growth inh -8.2% and SARS PLpro yeast -1.5%.
Screening CCc1ccc(OCC(O)CNC(C)(C)C)cc1 (stereo not drawn) returned Lassa entry inh -14.8%, Cruzain Triton -2.0%, 2A StopGo 14.5%, NS1 inh 1.0%, RE007 growth inh 4.2%, SARS PLpro yeast -3.8%, Marburg entry inh -23.7% and Cruzain noTriton 17.8%.
Screening Cc1occc1C(=O)N/N=C/c1c[nH]c2ccccc12 returned Lassa entry inh 8.1%, Cruzain Triton -3.6%, 2A StopGo 75.7%[activator], NS1 inh -7.8%, RE007 growth inh -3.9%, SARS PLpro yeast -7.8%, Marburg entry inh 20.8% and Cruzain noTriton 13.6%.
Screening O=C(CSc1nnc(-c2ccncc2)o1)c1cccc([N+](=O)[O-])c1 returned Lassa entry inh -19.9%, 2A StopGo -27.5%, NS1 inh 6.0%, RE007 growth inh -3.3%, SARS PLpro yeast -0.2% and Marburg entry inh -18.6%[46.1 µM].
Screening Cc1oc2cc3oc(=O)c(CCC(=O)N4CCCCC4)c(C)c3cc2c1C returned Lassa entry inh inconclusive, Cruzain Triton -0.9%, 2A StopGo 24.1%, Marburg entry inh inconclusive and Cruzain noTriton -0.1%.
For Cc1c(C(=O)NCc2ccccc2CN2CCCC2)oc2ccccc12 the results were Lassa entry inh -1.2%, 2A StopGo -21.1%, RE007 growth inh -27.6%, SARS PLpro yeast 1.2% and Marburg entry inh inconclusive.
Screening O=C1[C@@H]2CSCN2C(=O)CN1CCc1cccc(F)c1 returned Lassa entry inh 23.6%, Cruzain Triton 5.2%, 2A StopGo 18.4%, NS1 inh -4.6%, RE007 growth inh -11.5%, SARS PLpro yeast 0.4%, Marburg entry inh inconclusive and Cruzain noTriton 10.8%.
Screening COc1cccc(C(=O)c2sc(Nc3ccc(F)c(Cl)c3)nc2N)c1 returned Lassa entry inh 17.5%[46.1 µM], Cruzain Triton -0.7%, 2A StopGo 7.4% and Cruzain noTriton -28.3%.
O=C(CSc1nnc(-c2ccc(S(=O)(=O)N3CCCC3)cc2)o1)NCC1CCCO1 (stereo not drawn) was read as Lassa entry inh 3.5%, 2A StopGo -9.1%, NS1 inh -1.0%, RE007 growth inh 1.4%, SARS PLpro yeast -0.1% and Marburg entry inh inconclusive.
For CCOC(=O)c1ccccc1NC(=O)Cn1ncc2c1-c1ccccc1OC2 the results were Cruzain Triton 1.0%, 2A StopGo -15.3%, Marburg entry inh 6.9%[46.1 µM] and Cruzain noTriton 12.1%.
For Cc1ccnc(NC(=O)CCNS(=O)(=O)c2ccc(C)c(C)c2)c1 the results were 2A StopGo -8.2%, NS1 inh 13.1%, RE007 growth inh -9.9% and SARS PLpro yeast 2.6%.
CCC(C)NC(=O)CSC1=Nc2ccccc2C2=NC(CCC(=O)NCc3ccco3)C(=O)N12 (stereo not drawn) was read as Lassa entry inh -3.7%, Cruzain Triton 3.2%, 2A StopGo 29.8%, NS1 inh inconclusive, RE007 growth inh -1.2%, SARS PLpro yeast 2.8%, Marburg entry inh -0.9% and Cruzain noTriton -5.2%.
`COc1ccc(/C=C/c2nc(C#N)c(N3CCN(c4ccccc4)CC3)o2)cc1OC` gave Lassa entry inh -9.7%[46.1 µM], Cruzain Triton -0.5%, 2A StopGo -9.0%, Marburg entry inh 1.0%[46.1 µM] and Cruzain noTriton -7.8%.
Screening CNc1cc(C)nc(-n2nc(C)cc2C)n1 returned Lassa entry inh 1.6%, Cruzain Triton 5.4%, 2A StopGo 19.2%, NS1 inh 3.9%, RE007 growth inh 0.8%, SARS PLpro yeast 1.5%, Marburg entry inh 0.2% and Cruzain noTriton 0.6%.
`COCCCn1c(SCC(=O)Nc2nc3ccccc3s2)nnc1-c1ccoc1C` gave Lassa entry inh -3.8%, Cruzain Triton -6.4%, 2A StopGo -13.8%, NS1 inh -6.1%, RE007 growth inh inconclusive, SARS PLpro yeast 14.0%, Marburg entry inh -6.8%[46.1 µM] and Cruzain noTriton 6.3%.
